Screening data (PubChem BioAssay)
AF4-AF9 inh: blocks AF4 peptide binding to human AF9; P42568; AlphaScreen, biotin-AF4 peptide binding to FLAG-AF9; inhibition, % at 10 µM; 0.47% of 350,000 active;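 active = every replicate reaching a set inhibition limit, whatever the replicate mean, cut at about 25% in these data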;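 note: 0% = plate neutral control median and 100% = total signal loss; the record names both 10 and 1 µM as test concentration; the first replicate is given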
Target sequence (P42568 whole entry, looked up): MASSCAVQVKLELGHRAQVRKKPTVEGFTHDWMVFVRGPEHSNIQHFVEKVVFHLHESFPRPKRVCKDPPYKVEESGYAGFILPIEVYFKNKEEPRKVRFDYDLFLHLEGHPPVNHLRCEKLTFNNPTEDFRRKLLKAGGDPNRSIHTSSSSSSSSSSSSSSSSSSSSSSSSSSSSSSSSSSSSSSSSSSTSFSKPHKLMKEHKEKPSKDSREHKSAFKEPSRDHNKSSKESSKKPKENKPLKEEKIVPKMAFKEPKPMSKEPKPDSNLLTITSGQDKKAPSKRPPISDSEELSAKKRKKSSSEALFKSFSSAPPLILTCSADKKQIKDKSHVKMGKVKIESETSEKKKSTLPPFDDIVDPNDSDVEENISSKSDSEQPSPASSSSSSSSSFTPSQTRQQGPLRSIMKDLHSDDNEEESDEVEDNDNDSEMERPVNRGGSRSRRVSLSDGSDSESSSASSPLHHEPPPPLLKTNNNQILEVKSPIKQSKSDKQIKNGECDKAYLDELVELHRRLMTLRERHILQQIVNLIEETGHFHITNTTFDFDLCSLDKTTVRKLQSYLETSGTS
UCH37 DUB inh: inhibitors of human deubiquitinating enzyme UCH37; purified proteasome/UCH37, Ub-AMC cleavage fluorescence; Q9Y5K5; AID 588478; 0.33% of 330,000 active; inhibition, % (no concentration beside the values);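 active = mean of two replicates above 20%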;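 note: 0% = compound-free wells with enzyme and 100% = wells lacking proteasome; stock transfer was 100 nL into about 20 µL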
Target sequence (Q9Y5K5 whole entry, looked up): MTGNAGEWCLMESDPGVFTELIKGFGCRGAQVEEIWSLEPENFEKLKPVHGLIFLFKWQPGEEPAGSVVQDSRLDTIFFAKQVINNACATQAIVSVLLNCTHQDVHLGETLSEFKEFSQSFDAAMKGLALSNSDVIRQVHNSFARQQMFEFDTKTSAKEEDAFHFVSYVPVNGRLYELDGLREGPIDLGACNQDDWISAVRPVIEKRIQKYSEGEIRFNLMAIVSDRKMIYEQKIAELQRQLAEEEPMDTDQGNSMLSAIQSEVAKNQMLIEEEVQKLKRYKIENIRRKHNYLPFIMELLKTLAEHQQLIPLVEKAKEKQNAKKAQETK
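Test system – human UCH37 enzyme supplied as purified proteasome complex · Incubation – 30 min preincubation with enzyme, 25 min cleavage at room temperature · Detection – AMC fluorescence from Ub-AMC cleavage, excitation 355 nm, emission 460 nm · Benchmarks – no-proteasome wells (full inhibition) and compound-free wells (no inhibition)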
T cruzi repl: blocks replication of Trypanosoma cruzi; T. cruzi beta-gal in NIH3T3, luminescence, 90 h; inhibition, % (no concentration beside the values); 1.4% of 300,000 active;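 active = mean inhibition across valid replicates above about 55%, limit read from the data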;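 note: signal also drops with host cell toxicity which is not excluded here; 0% = plate median of DMSO wells and 100% = zero luminescence signal; higher percent means less beta-gal luminescence so fewer parasites; stock transfer was 50 nL into about 50 µL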
A1 inh: inhibitors of the anti-apoptotic protein A1, read as caspase activation; MEF A1-2A-BIM cells, Caspase-Glo 3/7 luminescence, 3 h; percent of clofoctol response, vehicle zero; caspase activation, % (concentration not given with the values); 0.066% of 330,000 active;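 active = over half of replicate activation scores above 10%, or exactly half above 10 with the replicate mean above 10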;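 note: wells of about 30 µL received 50 nL stock; many hits fall short of the cut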
Ecoli growth: inhibitors of Escherichia coli growth. OD600, 23 h; active compounds read low. OD600 absorbance (test concentration not listed). 0.21% of 330,000 active;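 active = OD600 absorbance below the run mean of sample wells minus 3.6 SD, in any replicate, cut at about 0.56 in these data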;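 note: stock transfer was 300 nL into about 60 µL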
FGF22 binding: shifts melting point of recombinant human FGF22; Q9HCT0; recombinant FGF22 thermal shift, SYPRO orange fluorescence; percent of sucrose octasulfate shift, DMSO zero; calls only at 9.99 µM; 1.5% of 340,000 active; AID 651658;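 active = melting point raised past a set limit in the mean and every replicate; three in four hits are not shown here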
Target sequence (Q9HCT0 whole entry, looked up): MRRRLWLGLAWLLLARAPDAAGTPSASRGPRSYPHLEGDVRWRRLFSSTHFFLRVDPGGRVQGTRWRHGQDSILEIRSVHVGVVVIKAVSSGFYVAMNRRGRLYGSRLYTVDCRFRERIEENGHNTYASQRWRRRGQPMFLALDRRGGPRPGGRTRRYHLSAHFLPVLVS
rRNA inh HTS: inhibits bacterial ribosomal RNA function over humanized ribosomes. E. coli WT GFP vs humanized-ribosome RFP mutants, fluorescence, 24 h; active compounds read low; DMSO median 0, no signal -100. GFP signal change (wild-type ribosome), % (test concentration not listed). 1.6% of 350,000 active. AID 720706;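 active = significant combined selectivity score with lowered wild-type GFP, culture density cut under 30%, mutant RFP and density less affected; inactive = any of these conditions unmet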; note: one replicate is shown; some compounds called inactive have numbers as strong as hits
Beta apoptosis: beta cell apoptosis inhibition; INS-1E cytokine-induced death, ATP luminescence, 48 h; percent of positive-control rescue, neutral wells zero; protection from apoptosis, % (no concentration beside the values); 0.8% of 300,000 active; AID 435005;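 active = all replicates at 75% or more, or half of them and the mean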;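 note: 0% = cytokine-treated negative control wells and 100% = positive control rescue; higher means more ATP so stronger rescue from cytokine killing; wells of about 40 µL received 100 nL stock; the first replicate is given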
rRNA inh HTS OD600: further read-out of rRNA inh HTS, marked with its call; OD600 change, %; measured here: OD600 growth;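 optical density of the mix in the first replicate; 0 = DMSO median and -100 = no signal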
rRNA inh HTS RFP: further read-out of rRNA inh HTS, marked with its call; RFP signal change, %; measured here: RFP humanized mutant strains;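 first replicate; 0 = DMSO median and -100 = no signal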
* hit, by the source's call; & = joins results of further samples.

How did N#Cc1ccccc1NC(=S)NC(=O)c1cccs1 do in these assays?
AF4-AF9 inh: 2.0; UCH37 DUB inh: 4.0; T cruzi repl: -13.2; A1 inh: 0.2; Ecoli growth: 0.667; FGF22 binding: inactive; rRNA inh HTS: 7.5; Beta apoptosis: 6.6; rRNA inh HTS OD600: 13.8; rRNA inh HTS RFP: -0.5

What do the screens show for `O=C1C(Cc2ccccc2)Nc2ncnc(N3CCCCC3)c2N1Cc1ccc(Br)cc1` (centres undefined)?
AF4-AF9 inh: 3.4&3.0; UCH37 DUB inh: 0.6; A1 inh: -0.8; Ecoli growth: 0.697; FGF22 binding: inactive; rRNA inh HTS: -4.5&-8.9; Beta apoptosis: -0.1; rRNA inh HTS OD600: -5.2&-2.9; rRNA inh HTS RFP: -0.2&15.1

What do the screens show for `O=C(CCc1nc2ccccc2s1)N1CCN(S(=O)(=O)c2cccs2)CC1`?
UCH37 DUB inh: 2.5; T cruzi repl: 11.6; A1 inh: 0.5; Ecoli growth: 0.675

What do the screens show for `CCCCn1cnc2c(c(CC#N)nn2-c2ccccc2)c1=N`?
AF4-AF9 inh: -18.1; UCH37 DUB inh: 1.0; Ecoli growth: 0.661; FGF22 binding: inactive; rRNA inh HTS: -4.6; rRNA inh HTS OD600: -7.3; rRNA inh HTS RFP: 6.0

Results for CCC(=O)Nc1ccc2c(c1)ncn2C ?
AF4-AF9 inh: -2.4; UCH37 DUB inh: 1.1; T cruzi repl: 8.0; A1 inh: 0.3; Ecoli growth: 0.669; FGF22 binding: inactive; rRNA inh HTS: 9.9; rRNA inh HTS OD600: 12.2; rRNA inh HTS RFP: 0.8

How did CNC(=O)Cn1c(C)cc(=O)c2cccc(OC)c21 do in these assays?
AF4-AF9 inh: 0.8; UCH37 DUB inh: -56.9; T cruzi repl: 3.7; A1 inh: -0.3; Ecoli growth: 0.685; FGF22 binding: inactive; rRNA inh HTS: -0.7; Beta apoptosis: -2.4; rRNA inh HTS OD600: -8.6; rRNA inh HTS RFP: -0.3

How did CC1CCCC(NC(=O)COC(=O)COc2cccc(F)c2)C1C (centres undefined) do in these assays?
AF4-AF9 inh: -2.6; UCH37 DUB inh: 2.4; A1 inh: 0.5; Ecoli growth: 0.724; FGF22 binding: inactive; rRNA inh HTS: 7.2; Beta apoptosis: -5.9; rRNA inh HTS OD600: 6.7; rRNA inh HTS RFP: -0.2

How did CCOC(=O)N1CCC(N(C(=O)Nc2ccc(CC)cc2)C(C)CC)CC1 (centres undefined) do in these assays?
UCH37 DUB inh: 0.4; T cruzi repl: -9.8; A1 inh: 0.4; Ecoli growth: 0.713; Beta apoptosis: 1.6

Results for CCOc1cc(/C=C/C(=O)OCC(=O)NC2CCS(=O)(=O)C2)ccc1OCc1ccccc1 (centres undefined) ?
AF4-AF9 inh: 3.9; UCH37 DUB inh: -16.2; T cruzi repl: 6.0; A1 inh: -0.4; Ecoli growth: 0.701; FGF22 binding: inactive; rRNA inh HTS: -28.4*; Beta apoptosis: -3.3; rRNA inh HTS OD600: -12.8*; rRNA inh HTS RFP: -2.1*

What do the screens show for `CCCCSc1nnc(-c2ccc(C)cc2)o1`?
UCH37 DUB inh: 0.8; A1 inh: -2.3; Ecoli growth: 0.625; Beta apoptosis: -1.9

How did O=C(Nc1ccccc1-c1ccccc1)c1cccs1 do in these assays?
AF4-AF9 inh: -18.1; UCH37 DUB inh: 3.8; T cruzi repl: -8.1; A1 inh: 0.0; Ecoli growth: 0.722; FGF22 binding: inactive; rRNA inh HTS: -24.8; Beta apoptosis: -8.3; rRNA inh HTS OD600: -48.6; rRNA inh HTS RFP: -1.6

How did COc1ccccc1NC(=O)C1CCCN1C(=O)NCc1ccccc1 (centres undefined) do in these assays?
UCH37 DUB inh: 1.8; T cruzi repl: -4.3; A1 inh: -0.8; Ecoli growth: 0.64; Beta apoptosis: -4.2

Results for O=C(O)C1CC=CCC1C(=O)Nc1ccccc1Cl (centres undefined) ?
UCH37 DUB inh: -3.1; T cruzi repl: 4.6; A1 inh: 0.7; Ecoli growth: 0.691; Beta apoptosis: 3.4

Results for CC(=O)c1ccc(Cc2cnc(N)s2)cc1 ?
UCH37 DUB inh: 0.3; A1 inh: 0.0; Ecoli growth: 0.695; Beta apoptosis: 4.5

Results for Cc1cc(OCC(=O)N2CCN(c3ccc(F)cc3)CC2)c2c(C)cc(=O)oc2c1 ?
AF4-AF9 inh: -2.0; UCH37 DUB inh: 1.4; T cruzi repl: -2.7; A1 inh: 1.3; Ecoli growth: 0.753; FGF22 binding: inactive; rRNA inh HTS: 16.6; Beta apoptosis: 7.5; rRNA inh HTS OD600: 11.0; rRNA inh HTS RFP: -1.3

What do the screens show for `CCCCn1c(SCC(=O)NC2CCS(=O)(=O)C2)nnc1-c1ccc(OC)cc1` (centres undefined)?
AF4-AF9 inh: -0.6; T cruzi repl: -6.0; A1 inh: 0.0; rRNA inh HTS: 8.1; Beta apoptosis: 2.4; rRNA inh HTS OD600: 3.8; rRNA inh HTS RFP: -0.7

Results for CCN(c1ccccc1)S(=O)(=O)c1nnc(NC(=O)CC(C)C)s1 ?
AF4-AF9 inh: 0.0; UCH37 DUB inh: 1.1; T cruzi repl: 0.8; A1 inh: 0.2; Ecoli growth: 0.704; FGF22 binding: inactive; rRNA inh HTS: 16.0; Beta apoptosis: -1.8; rRNA inh HTS OD600: 9.3; rRNA inh HTS RFP: 1.6

How did Cc1ccc(NC(=S)NNC(=O)c2nn(C)c(C)c2Cl)cc1 do in these assays?
UCH37 DUB inh: 1.5; T cruzi repl: -1.2; A1 inh: -0.5; Ecoli growth: 0.668; Beta apoptosis: -2.8

How did COC(=O)C(N)Cc1ccc(Cl)cc1 (centres undefined) do in these assays?
AF4-AF9 inh: 4.6; UCH37 DUB inh: 1.0; A1 inh: 0.5; Ecoli growth: 0.689; FGF22 binding: inactive; Beta apoptosis: -0.3

What do the screens show for `Clc1ccc2c(c1)c1cc(Cl)ccc1n2CN1CCOCC1`?
UCH37 DUB inh: 0.8; T cruzi repl: 7.0; A1 inh: 0.3; Ecoli growth: 0.0885*; Beta apoptosis: 3.0

What do the screens show for `COc1ccc2c(CC(=O)NCc3ccc4c(c3)OCO4)coc2c1`?
AF4-AF9 inh: 7.9; UCH37 DUB inh: 3.5; T cruzi repl: -8.9; A1 inh: -0.2; Ecoli growth: 0.631; FGF22 binding: inactive; rRNA inh HTS: -25.4*; Beta apoptosis: -9.0; rRNA inh HTS OD600: 8.1*; rRNA inh HTS RFP: 0.4*

Results for CCOC(=O)c1c(C)nc(SCC(N)=O)c(C#N)c1-c1ccccc1 ?
UCH37 DUB inh: 2.0; T cruzi repl: 6.8; A1 inh: -0.2; Ecoli growth: 0.678; Beta apoptosis: 2.1

How did CCc1nnc(NS(=O)(=O)c2ccc(NC(=O)CCC(=O)O)cc2)s1 do in these assays?
AF4-AF9 inh: 1.7; UCH37 DUB inh: 4.5; T cruzi repl: -4.7; A1 inh: 0.2; Ecoli growth: 0.672; FGF22 binding: inactive; rRNA inh HTS: 8.7; Beta apoptosis: -5.0; rRNA inh HTS OD600: -0.2; rRNA inh HTS RFP: 2.0

What do the screens show for `O=C(Cc1ccccc1)N/N=C/C=C/c1ccccc1[N+](=O)[O-]`?
AF4-AF9 inh: 5.5; T cruzi repl: 10.9; A1 inh: -0.2; FGF22 binding: inactive; rRNA inh HTS: 5.1; Beta apoptosis: 3.6; rRNA inh HTS OD600: -8.6; rRNA inh HTS RFP: -2.5

What do the screens show for `COc1ccc(/C=N/NC(=O)c2cccnc2)cc1CSc1ccccn1`?
AF4-AF9 inh: 0.7; T cruzi repl: -12.9; A1 inh: -1.2; FGF22 binding: inactive; rRNA inh HTS: 0.0; Beta apoptosis: -2.0; rRNA inh HTS OD600: 4.0; rRNA inh HTS RFP: -1.1

What do the screens show for `O=C(NCCC1CCCC1)C1CCC(=O)N(CCCN2CCCC2=O)C1` (centres undefined)?
AF4-AF9 inh: 0.3; UCH37 DUB inh: 2.1; T cruzi repl: -9.9; A1 inh: 0.0; Ecoli growth: 0.652; FGF22 binding: inactive; rRNA inh HTS: 5.4; Beta apoptosis: -3.6; rRNA inh HTS OD600: 10.4; rRNA inh HTS RFP: -2.3

What do the screens show for `COc1ccc(-c2nc(N)c(C#N)c(-c3cccnc3)c2C)cc1`?
UCH37 DUB inh: -39.1; T cruzi repl: -3.0; A1 inh: 0.8; Ecoli growth: 0.678; FGF22 binding: inactive; rRNA inh HTS: 4.7; Beta apoptosis: -3.0; rRNA inh HTS OD600: 5.7; rRNA inh HTS RFP: 1.7

How did CCNC(=S)Nc1cccc(NC(=O)c2ccccc2O)c1 do in these assays?
AF4-AF9 inh: 2.1; UCH37 DUB inh: -56.9; T cruzi repl: -18.1; A1 inh: -0.2; Ecoli growth: 0.667; FGF22 binding: inactive; rRNA inh HTS: -15.8; Beta apoptosis: -1.0; rRNA inh HTS OD600: 10.9; rRNA inh HTS RFP: 3.6

Results for CCOc1cc(C(=O)Nc2ccccc2N2CCOCC2)ccc1OCC(=O)N1CCOCC1 ?
AF4-AF9 inh: -10.3; UCH37 DUB inh: -1.3; A1 inh: 0.0; Ecoli growth: 0.712; FGF22 binding: inactive; rRNA inh HTS: -7.9; Beta apoptosis: -1.8; rRNA inh HTS OD600: -12.3; rRNA inh HTS RFP: -3.3

How did O=C(Cc1c(F)cccc1Cl)Nc1cc(S(=O)(=O)N2CCCCC2)ccc1N1CCOCC1 do in these assays?
AF4-AF9 inh: -1.4; UCH37 DUB inh: 0.3; T cruzi repl: 29.5; A1 inh: 0.1; Ecoli growth: 0.694; FGF22 binding: inactive; rRNA inh HTS: -2.5; Beta apoptosis: 2.4; rRNA inh HTS OD600: -1.3; rRNA inh HTS RFP: 3.5

What do the screens show for `Cc1cccc(OCCCC(=O)NC2CCCCC2)c1`?
AF4-AF9 inh: 1.7; UCH37 DUB inh: 5.6; T cruzi repl: -2.1; A1 inh: 0.0; Ecoli growth: 0.663; FGF22 binding: inactive; rRNA inh HTS: -2.0; Beta apoptosis: 0.3; rRNA inh HTS OD600: -0.8; rRNA inh HTS RFP: -0.4

What do the screens show for `CCN(CC)N=Nc1ccc(C(=O)O)cc1`?
AF4-AF9 inh: 6.3; UCH37 DUB inh: 11.9; T cruzi repl: 5.2; A1 inh: -0.4; Ecoli growth: 0.706; FGF22 binding: inactive; rRNA inh HTS: 1.0; Beta apoptosis: -4.7; rRNA inh HTS OD600: -13.7; rRNA inh HTS RFP: -4.4

How did CN1CCN(S(=O)(=O)c2ccc(Br)c3nsnc23)CC1 do in these assays?
UCH37 DUB inh: 5.3; T cruzi repl: -3.3; A1 inh: -0.8; Ecoli growth: 0.603; rRNA inh HTS: 22.1; Beta apoptosis: -1.0; rRNA inh HTS OD600: 14.9; rRNA inh HTS RFP: 2.9

The list is partial; rates above refer to the full screens.
